TRPV1 potentiator – potentiators of human vanilloid receptor 1 (TRPV1) | TRPV1-expressing cells, Fluo-8 calcium influx, capsaicin EC20 potentiation; host cell line not named in the record; control for the full effect not named in the record | potentiation, % at 8.33 µM | actives 0.02% (n = 320,000) | AID 540277; active means potentiation above 80%; inconclusive means 30% to 80%; inactive means below 30%; note: 0% is about no effect
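TRPV1-expressing cells were cultured overnight at 35.5C and loaded with Fluo-8 calcium dye for 40 to 90 min at room temperature. After a 10 s baseline, compound was added and calcium influx was read kinetically for 3 min (ex 480/em 520 nm).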
TRPML1 inh – blocks the human TRPML1 channel; actives 0.02% (n = 390,000); activity change, negative = inhibition, % (no concentration beside the values); TRPML1-inducible cells, Ca2+ dye fluorescence, FDSS; hits give low values; inhibition of EC80 agonist-evoked calcium signal; AID 624415; Q9GZU1; in the data active means activity change below about -50%; inconclusive means about -30% to -50%; inactive means above about -30%;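 note: stimulus is agonist 54-4 at its EC80 concentration; % is set by controls: 0 for no effect and ±100 for the full control effect; compound concentration not given in the record; the text of the record puts the active cut at -80%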
Target sequence (Q9GZU1 whole entry, looked up): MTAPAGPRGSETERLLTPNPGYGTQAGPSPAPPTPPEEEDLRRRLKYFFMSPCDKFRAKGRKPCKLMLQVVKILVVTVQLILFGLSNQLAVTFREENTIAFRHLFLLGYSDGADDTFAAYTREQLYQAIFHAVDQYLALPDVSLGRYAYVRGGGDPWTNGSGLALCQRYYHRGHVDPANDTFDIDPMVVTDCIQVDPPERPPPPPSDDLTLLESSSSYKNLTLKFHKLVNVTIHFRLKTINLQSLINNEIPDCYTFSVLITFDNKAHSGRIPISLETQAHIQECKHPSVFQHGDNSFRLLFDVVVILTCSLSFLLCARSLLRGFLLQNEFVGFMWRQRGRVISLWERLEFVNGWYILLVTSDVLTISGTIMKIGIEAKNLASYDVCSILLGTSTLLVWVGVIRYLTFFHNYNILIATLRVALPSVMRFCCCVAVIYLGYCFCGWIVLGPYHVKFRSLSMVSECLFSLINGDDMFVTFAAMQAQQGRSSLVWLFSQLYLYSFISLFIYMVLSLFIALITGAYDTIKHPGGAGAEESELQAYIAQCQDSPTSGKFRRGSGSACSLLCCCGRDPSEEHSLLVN
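Calcium fluorescence in TRPML1-DL cells induced overnight with Tet: a 110 s read after compound pin addition, then a 110 s antagonist read after challenge with 54-4 at 4 uM final (EC80).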
TRPML1 ag – agonists of human TRPML1 channel | activation, % (no concentration beside the values) | TRPML1-expressing cells, Ca2+ dye fluorescence, FDSS; host cell line not named in the record; reference of the full effect not given here | Q9GZU1 | actives 0.12% (n = 410,000); in the data active = activation above about 50%; inconclusive = about 30% to 50%; inactive = below about 30%; note: 0% is about no effect; the text of the record puts the active cut at 80%
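Tet-induced TRPML1-DL cells, 1,500 per well, cultured overnight, were loaded with a no-wash Ca2+ dye for 45–90 min. Calcium fluorescence was recorded on the FDSS for 110 s after compound addition, before the EC80 agonist (4 uM 54-4) was added.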
PINK1 modulator – modulators of PINK1 expression. Potency, µM (series often up to 76.6 µM), for the others: at the highest dose activation (PINK1 increase), hits mostly activators. PINK1 immunofluorescence, high-content cytometry, 24 h. actives 0.2% (n = 410,000); active = well fitted activation curve with a large enough effect; inconclusive = small, poorly fitted or top-dose-only effect; inactive = flat fitted curve, though single readings scatter; cell line not stated here;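 note: potency is the fitted concentration of half-maximal effect; % of control where 0% means no effect; nearly all actives have a fitted effect of over 65% in size; a mitochondrial uncoupler was the plate control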
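Readout is PINK1 immunofluorescence, quantified alongside mitochondrial, cell and nuclear markers by laser-scanning microplate cytometry. Cells from a stable line were exposed to compound titrations (5 concentrations) for 24 hours, with CCCP controls.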
Menin MLL FP FL – inhibitors of human menin-MLL interaction, wild-type MLL peptide | Fluorescence polarization, fluorescein-MLL peptide displacement from menin | FP activity change, % at 61.4 µM | 290,000 tested, under 10 active | AID 1766; inconclusive = falling polarisation curve, or a change in total fluorescence; inactive = total fluorescence flat and polarisation flat or rising; no compound was filed as active; the % refers to the polarisation; negative = inhibition;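 note: % of control where 0% means no effect; inhibitors lower the polarisation; unlabelled MLL peptide was the positive control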
ClpP mod – qHTS Assay for Activators of ClpP. ATP-dependent Clp protease proteolytic subunit (Bacillus subtilis (strain 168)), P80244. purified B. subtilis ClpP, FRET peptide cleavage, 20 min. Potency, µM (series often up to 57.5 µM), for inactives: top-dose activity change, negative = active. actives 1.9% (n = 340,000); active = well fitted falling curve with a large enough effect; inconclusive = small, poorly fitted or top-dose-only effect; inactive = no such curve, though single readings can be large or run the other way; note: potency is the fitted concentration of half-maximal effect; the source files actives as falling curves though it sought activators and does not explain the sign; nearly all actives have a fitted effect of over 65% in size; many hits overshoot -100%
Target sequence (P80244 whole entry, looked up): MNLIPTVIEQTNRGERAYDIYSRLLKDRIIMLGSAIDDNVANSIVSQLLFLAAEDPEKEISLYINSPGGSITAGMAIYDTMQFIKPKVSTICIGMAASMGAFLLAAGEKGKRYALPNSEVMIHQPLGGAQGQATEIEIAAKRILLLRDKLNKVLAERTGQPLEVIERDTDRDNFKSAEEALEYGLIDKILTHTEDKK
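FRET quenching reversal measured ClpP activation: 10 microg/mL B. subtilis ClpP at pH 8 with the FRET-FV decapeptide, read at 430 nm after 320 nm excitation. The 20-min minus 0-min signal was scaled between DMSO/no-enzyme wells and ADEP (5.8 microM final).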
Sfp PPTase inh – blocks B. subtilis Sfp PPTase activity; Biochemical Sfp PPTase activity, qHTS; Q9F4F7; Potency, µM, inactives show max response, negative = inhibition, actives largely listed as inhibitors; actives 3.5% (n = 310,000); active = well fitted inhibition curve with a large enough effect; inconclusive = small, poorly fitted or top-dose-only effect, or another doubt; inactive = no such curve, though single readings can be large or run the other way;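 note: the enzyme is Sfp with the accession as filed and its product quenches rhodamine fluorescence; potency is the fitted concentration of half-maximal effect; 0% = enzyme reaction without inhibitor and -100% = no enzyme wells; top concentration of the series not given in the record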
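With Hepes-Na pH 7.6 buffer containing 10 mM MgCl2, Sfp (15 nM) modified BHQ-2-YbbR (12.5 uM) using rhodamine-CoA (5 uM). Two reads 30 minutes apart at 525/598 nm yielded each well's rate.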
Numbers without * were called inactive; ? = inconclusive; . = not tested or not shown; [ ] = another dose, or the depositor's remark.

entry	SMILES	TRPV1 potentiator	TRPML1 inh	TRPML1 ag	PINK1 modulator
1	O=C(OCc1ccc([N+](=O)[O-])cc1)C1CC(=O)N(CCc2ccccc2)C1 (configuration not stated)	-22	4	-0.3	-2.0%
2	CC(Oc1cccc(Cl)c1)C(=O)Nc1ccc(S(=O)(=O)N(C)C2CCN(C)CC2)cc1 (configuration not stated)	3	10	2.8	5.2%
3	CCOc1ccc(NC(=O)NCc2ccccn2)cc1	-3	-7	-0.5	1.3%
4	Cc1csc(NC(=O)c2cnccn2)n1	-7	-20	-0.3	0.1%
5	CC(C)c1nc2sc3c(SCCN(C)C)ncnc3c2c2c1CCC2	.	5	1.0	5.4%
6	NC(=O)C1CCN(CCC(=O)Nc2ccc3c(c2)CCC3)CC1	12	11	0.4	1.3%
7	COc1ccc(CC(=O)NC(C)c2nnc(SCC(=O)c3ccc(Br)cc3)n2C)cc1 (configuration not stated)	4	2	0.5	-0.9%[38.3 µM]
8	C[C@@H]1CN([C@@H](C)CO)C(=O)CCCn2nncc2CO[C@@H]1CN(C)S(=O)(=O)c1cccc(C#N)c1	.	46	-0.1	-0.2%
9	CCCn1c(=O)c2sccc2n2c(CCCC(=O)NCc3cccnc3)nnc12	1	29	0.6	-1.6%
10	Cc1ccc(NC(=S)N2CCN(C3CCCCC3)CC2)cc1	-10	-10	0.9	1.9%[38.3 µM]

entry	Menin MLL FP FL	ClpP mod	Sfp PPTase inh
1	.	-2.4%	.
2	.	-2.6%	.
3	0.7	0.7%	5%
4	6.2	-1.4%	-13%
5	.	.	.
6	2.4	0.9%	22%
7	0.7	0.2%	?
8	.	-1.5%	.
9	.	-17%	-1%
10	3.4	0.0%	11%

4 structures already listed, sorted by molar mass, largest number first:
entry	SMILES	TRPV1 potentiator	TRPML1 inh	TRPML1 ag	PINK1 modulator
9	CCCn1c(=O)c2sccc2n2c(CCCC(=O)NCc3cccnc3)nnc12	1	29	0.6	-1.6%
10	Cc1ccc(NC(=S)N2CCN(C3CCCCC3)CC2)cc1	-10	-10	0.9	1.9%[38.3 µM]
3	CCOc1ccc(NC(=O)NCc2ccccn2)cc1	-3	-7	-0.5	1.3%
4	Cc1csc(NC(=O)c2cnccn2)n1	-7	-20	-0.3	0.1%

entry	Menin MLL FP FL	ClpP mod	Sfp PPTase inh
9	.	-17%	-1%
10	3.4	0.0%	11%
3	0.7	0.7%	5%
4	6.2	-1.4%	-13%

(further entries)
entry	SMILES	TRPV1 potentiator	TRPML1 inh	TRPML1 ag	PINK1 modulator
11	O=C(O)c1ccc(COc2ccccc2/C=C2\NC(=O)N(Cc3ccccc3F)C2=O)cc1	-10	-19	2.2	-1.4%
12	O=C(COC(=O)CNC(=O)C12CC3CC(CC(C3)C1)C2)NC1CCS(=O)(=O)C1 (configuration not stated)	-7	-10	0.7	2.6%
13	CC1=C(C(=O)Nc2ccc(C)cc2)C(c2cccs2)NC(=S)N1 (configuration not stated)	9	-11	-0.2	-1.0%
14	CN(C)C(=O)c1ccc(-c2ccc3ncnc(NCc4ccccc4)c3c2)cc1	.	.	.	-0.9%
15	C(=N\Nc1nccc(-c2cccnc2)n1)/c1ccccc1	8	31	0.0	-0.3%
16	COc1ccc(CCN(Cc2ccccn2)C(=S)Nc2ccc(C)cc2)cc1OC	-2	25	1.5	-0.7%
17	CCn1c(CN2CCN(c3ccc(Cl)cc3)CC2)nc2ccccc21	9	23	1.3	.
18	Cc1ccc(N(Cc2ccccc2)C(=O)c2ccc(F)cc2)cc1	13	6	0.9	2.2%
19	COc1ccc2[nH]c(=O)c(CN(C(=O)c3ccco3)C3CCCCC3)cc2c1	14	31	1.1	3.0%
20	O=C(O)CNC(=S)NCc1ccccc1	7	10	-0.3	3.2%

entry	Menin MLL FP FL	ClpP mod	Sfp PPTase inh
11	29	.	?
12	5.3	.	9%
13	-0.6	-0.6%	10%
14	-1.1	.	17%
15	0.2	-2.6%	-7%
16	1.1	-1.5%	4%
17	-0.9	-1.1%	-13%
18	.	-0.9%	-15%
19	-2.1	?	7.9µM*
20	-1.0	.	4%

An excerpt of these results, with bars between the fields.
No. | Compound | TRPV1 potentiator | TRPML1 inh | TRPML1 ag | PINK1 modulator | Menin MLL FP FL | ClpP mod | Sfp PPTase inh
19 | COc1ccc2[nH]c(=O)c(CN(C(=O)c3ccco3)C3CCCCC3)cc2c1 | 14 | 31 | 1.1 | 3.0% | -2.1 | ? | 7.9µM*
20 | O=C(O)CNC(=S)NCc1ccccc1 | 7 | 10 | -0.3 | 3.2% | -1.0 | . | 4%

The list goes on.
entry	SMILES	TRPV1 potentiator	TRPML1 inh	TRPML1 ag	PINK1 modulator
21	CCCCCCCCn1c2c(c(=N)c3c1CCC3)CCCC2	-16	13	-0.4	?
22	C=CCc1cc(/C=C/c2nc(O)c([N+](=O)[O-])c(=O)[nH]2)cc(OC)c1O	0	-6	-0.4	-0.3%
23	O=C1Nc2ccccc2C1(O)Cc1ccccn1 (configuration not stated)	3	0	0.3	-1.1%
24	NC(N)=N/N=C(\N=Nc1ccccc1)c1cccc2cccnc12	.	-3	1.4	0.9%
25	CCn1cc([N+](=O)[O-])c(C(=O)N2N=C(c3cccc4ccccc34)CC2c2ccccc2O)n1 (configuration not stated)	6	23	0.2	0.9%
26	CCOc1ccccc1N1CCN(C(=O)c2ccc(NS(=O)(=O)c3ccc4[nH]c(=O)[nH]c4c3)cc2)CC1	-3	19	1.1	0.6%
27	CCCc1ccc(OCc2ccc(C(=O)OC)o2)c(OC)c1	8	12	3.0	0.2%[38.3 µM]
28	CCn1c(=O)n(-c2ccc(C)c(F)c2)c(=O)c2sc3ccccc3c21	.	-14	-0.3	1.4%
29	COc1ccc2c(c1)Cc1sc(NC(=O)c3cccc(Cl)c3)nc1-2	.	-9	0.1	0.5%
30	CC(=O)c1ccc(OCc2nnn(CC(=O)NS(=O)(=O)c3ccc(C)cc3)c2-c2ccccc2)cc1	.	.	-0.6	0.0%

entry	Menin MLL FP FL	ClpP mod	Sfp PPTase inh
21	-0.6	.	?
22	1.9	.	-7%
23	1.2	.	3%
24	.	-3.4%	.
25	2.7	0.6%	10%
26	.	.	.
27	-1.6	-1.4%	-2%
28	.	4.4%	.
29	.	-1.9%	.
30	.	0.5%	.

entry	SMILES	TRPV1 potentiator	TRPML1 inh	TRPML1 ag	PINK1 modulator
31	O=Cc1cnc(N2CCOCC2)nc1	-4	4	0.3	-1.8%
32	COC(=O)CCNC(=O)c1nn(Cc2ccccc2)c(=O)c2ccccc12	0	-11	0.3	0.8%
33	O=C(COC(=O)COc1ccc2c(c1)CCC2)Nc1ccccc1	-11	2	3.2	2.3%
34	CCC(CC)c1nnc(NC(=O)CCCN2C(=O)c3ccccc3C2=O)s1	9	26	-0.4	2.9%
35	O=C(CSc1nnc2ccccn12)Nc1cccc(-c2nc3ccccc3s2)c1	2	10	-0.8	5.5%
36	COc1ccc(NC(=O)CSc2nc(-c3ccccc3)[nH]c2-c2ccccc2)cc1OC	.	-14	1.0	2.2%
37	Cc1ccccc1NC(=S)NCCSc1ccc(Cl)cc1	-11	-21	2.4	21%
38	CCOc1ccc(OCCn2nnc3ccccc3c2=O)cc1	-2	3	20	2.1%
39	COc1cccc2c1N(C)C(=O)CC21C=CC(=O)C=C1	.	4	0.3	.
40	CCCNC(=O)c1ccccc1NC(=O)Nc1ccccc1C	1	6	0.3	-1.5%

entry	Menin MLL FP FL	ClpP mod	Sfp PPTase inh
31	-0.2	-1.2%	-8%
32	1.4	.	17%
33	.	-0.2%	.
34	-1.2	-4.0%	15%
35	1.9	-5.1%	1%
36	.	-17%	.
37	-1.1	.	22%
38	-3.4	?	3%
39	5.7	.	-15%
40	3.2	-10%	22%

entry	SMILES	TRPV1 potentiator	TRPML1 inh	TRPML1 ag	PINK1 modulator
41	CCc1ccc[n+](-c2[nH]c(=O)sc2/C=N/NC([S-])=Nc2ccccc2)c1	-10	-7	7.8	1.0%
42	CC1=C[C@H]2Cc3cc(C)cc(C)c3S(=O)(=O)[C@@H]2C=C1	-2	12	1.2	1.7%
43	CCOC(=O)C1(CC2CC2)CCN(Cc2cn[nH]c2-c2ccccc2)CC1	4	23	2.1	-1.3%
44	COc1ccccc1CCNC(=O)c1nc(-c2cccs2)no1	-10	1	1.8	1.6%
45	COc1ccc([N+](=O)[O-])cc1N(CC(=O)Nc1ccccc1C(=O)NC(C)C)S(C)(=O)=O	-2	-23	1.1	-1.0%
46	COc1ccccc1CCn1c(=O)c(-c2ccc(F)cc2)nc2cncnc21	.	.	.	-0.2%
47	CC1(C)CC(N2CCN(CCO)CC2)=CC(=S)N1	15	-5	1.9	2.4%
48	Cc1nc(N2CCN(Cc3nc4ccccc4[nH]3)CC2)c2oc3ccccc3c2n1	-11	-5	2.4	2.4%
49	CCc1nc(SCC(=O)Nc2ccc(N(C)C)cc2)n[nH]1	5	9	0.7	-1.0%
50	Cc1ccc(S(=O)(=O)/N=C/c2c(O)ccc3ccccc23)cc1	5	.	.	-0.7%
51	CC1CC(C)CN(C(=O)CSc2nnc(-c3ccc(Cl)cc3)o2)C1 (configuration not stated)	-12	-22	1.8	0.4%
52	Cc1ccccc1OCCC(=O)OCC(=O)c1c(N)n(CC(C)C)c(=O)n(C)c1=O	.	-2	-0.2	1.6%
53	Cc1ccc(NC(=O)C/C(N)=N/OC(=O)Nc2cccc(C)c2)cc1	2	0	-0.7	0.3%

entry	Menin MLL FP FL	ClpP mod	Sfp PPTase inh
41	?	-1.7%	-21%
42	2.4	1.7%	-5%
43	-4.3	-0.3%	5%
44	3.0	.	10%
45	-9.0	.	20%
46	-1.1	.	16%
47	?	1.6%	50µM*
48	8.0	-3.9%	16%
49	.	-2.4%	.
50	-3.4	-8.3%	1%
51	2.7	-0.9%	4%
52	.	28µM*	.
53	.	1.7%	.

Screens (PubChem BioAssay)

This is a random part of the collection (roughly 4.4% active in at least one column).
